Screens (PubChem BioAssay)
Arbovirus inh = blocks arbovirus infection; arbovirus infection cell-based antiviral screen; inhibition, % at 10 µM; hit rate 0.37% among 200,000;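 active = inhibition from about 30%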;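 note: bluetongue infection of BSR cells; cell survival read as ATP light after 72 h; 0% = infected wells without compound and 100% = uninfected wells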
RecA intein inh = inhibitors of M. tuberculosis RecA intein splicing | P9WHJ3 | cell-free RecA intein splicing, fluorescence | inhibition, %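 (about 9 µM by stock and volumes)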 | hit rate 0.75% among 290,000 | AID 2221; in the data active = inhibition above about 30%;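 note: 0% = vehicle wells and 100% = reference inhibitor control wells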
Target sequence (P9WHJ3 whole entry, looked up): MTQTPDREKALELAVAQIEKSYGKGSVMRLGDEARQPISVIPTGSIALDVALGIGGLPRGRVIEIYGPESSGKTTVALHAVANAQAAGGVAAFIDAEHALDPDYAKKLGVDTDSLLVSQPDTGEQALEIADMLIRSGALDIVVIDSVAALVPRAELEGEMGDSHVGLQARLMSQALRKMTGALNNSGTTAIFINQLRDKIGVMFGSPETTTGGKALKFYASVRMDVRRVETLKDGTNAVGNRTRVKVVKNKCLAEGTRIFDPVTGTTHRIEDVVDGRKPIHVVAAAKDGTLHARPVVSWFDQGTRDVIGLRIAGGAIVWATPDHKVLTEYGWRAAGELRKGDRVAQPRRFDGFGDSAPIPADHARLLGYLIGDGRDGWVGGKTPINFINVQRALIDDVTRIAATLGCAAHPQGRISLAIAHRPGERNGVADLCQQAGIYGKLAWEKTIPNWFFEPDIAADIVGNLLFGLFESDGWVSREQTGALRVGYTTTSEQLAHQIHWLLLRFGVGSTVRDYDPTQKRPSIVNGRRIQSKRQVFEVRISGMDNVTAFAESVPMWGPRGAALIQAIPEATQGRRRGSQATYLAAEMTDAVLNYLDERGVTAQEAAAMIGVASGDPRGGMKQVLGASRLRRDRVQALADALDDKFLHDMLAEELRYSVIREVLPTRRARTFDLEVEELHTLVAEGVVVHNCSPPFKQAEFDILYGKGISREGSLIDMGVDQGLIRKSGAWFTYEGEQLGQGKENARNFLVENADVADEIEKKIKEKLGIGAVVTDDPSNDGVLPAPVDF
Mtb betalactam = beta-lactam sensitization of Mtb H37Rv | M. tuberculosis H37Rv growth with meropenem, percent inhibition; hits of this screen are not shown here | inhibition, % at 25 µM | hit rate 0.27% among 330,000 | AID 434955;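 active = about 74% or more and at least 40 points above the plate without the antibiotic, then above 30% in a dose series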;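 note: growth measured after seven days incubation then overnight dye step; 0% = bacteria only wells and 100% = bacteria with antibiotic; twin plates without the antibiotic show which effects depend on it; some results filed as inactive read as strong as hits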
YopH PTP inh = YopH (Yersinia) phosphatase inhibition; hit rate 0.16% among 140,000; inhibition, %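 (about 10 µM by stock and volumes)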; AID 898; fluorescence Ex485/Em525;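 active = inhibition of 50% or more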;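 note: controls were vehicle for no effect and minimum signal wells for full effect; inactives centre near -20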
Mtb H37Rv = M. tuberculosis H37Rv growth inhibitors, H37Rv strain (AID 1626) | M. tuberculosis H37Rv growth inhibition; higher % means a stronger effect | one-dose inhibition, % at 10 µM; IC50 in µM for titrated hits | hit rate 0.95% among 220,000;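 active = confirmed in a dose series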;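 note: bacteria incubated seven days before Alamar blue readout; 0% = bacteria only wells and 100% = bacteria with antibiotic wells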
Arbovirus inh repeat = further read-out of Arbovirus inh, marked with its call; inhibition, %; measured here: 10K subset replicate screen; many hits read low in the repeat;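 first of two repeat runs on a subset; 0% = infected and 100% = uninfected wells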
* marks the source's active call; other numbers are inactive results; nt = no result given. This is a subset; rates above refer to the full screens.

SMILES	Arbovirus inh	RecA intein inh	Mtb betalactam	YopH PTP inh	Mtb H37Rv	others
S=C(NCc1ccccc1)NN1CCOCC1	6	-6.5	-1	nt	2%
O=C(CN1C(=O)CSc2ccccc21)Nc1ccccc1C(=O)N1CCOCC1	-1	nt	2	-30	3%
COCCN(C(=O)CNC(=O)c1ccco1)C(C(=O)NC1CCCC1)c1cccs1 (configuration not stated)	4	-0.1	-4	-4	-16%
CC(NC(=O)C(=O)N1CCOCC1)C(c1cccs1)N1CCN(c2ccc(F)cc2)CC1 (configuration not stated)	nt	1.4	-4	nt	nt
Cc1ccc(C(=O)COC(=O)COc2ccc(C)c(C)c2)cc1	nt	0.3	10	nt	nt
CN(C)CCCNCC(=O)NN(c1ccccc1)c1ccccc1	nt	-1.2	-4	nt	-3%
COc1ccccc1N1CCN(C(=O)CN(Cc2ccccc2)S(C)(=O)=O)CC1	11	-0.3	-11	-22	2%
CSc1cccc(NC(=S)N2CCC(N(C)C3CCCCCC3)CC2)c1	0	-0.6	-12	nt	-7%
O=C(/C=C/c1ccc2c(c1)OCO2)NCCS(=O)(=O)N1CCN(c2ccc(F)cc2)CC1	nt	-0.6	-11	nt	nt
CCOc1ccc(N(CC(=O)N2CCCC2)S(=O)(=O)c2ccc(F)cc2)cc1	nt	-0.4	1	nt	nt
CCOC(=O)N1CCN(c2c(-c3ccc(C)cc3)c(=O)c2=O)CC1	2	nt	9	-30	6%
Cn1c(=O)c2c(nc(Br)n2CCSc2nnnn2-c2ccccc2)n(C)c1=O	8	0.5	6	3	5%
O=C(NNc1cc(N2CCOCC2)nc(N2CCOCC2)n1)C12CC3CC(CC(C3)C1)C2	5	1.7	-3	21	-1%
COCc1[nH]nc2c1C(c1ccc(OC)c(OC)c1)C(C#N)=C(N)O2 (configuration not stated)	5	56*	-8	-51	-3%
CCOC(=O)C1=C(CS(=O)(=O)c2ccccc2)NC(=O)NC1c1cccc(OC)c1 (configuration not stated)	5	nt	-4	nt	-4%
C/C(=N/NC(=O)c1ccncc1)c1ccc(NC(=O)c2ccccc2)cc1	nt	3.4	99	nt	nt
COc1ccc(F)cc1S(=O)(=O)Nc1ccncc1	nt	-0.7	3	nt	nt
C/C(=N\NC(=O)Cc1cccn1C)c1cccc2ccccc12	1	8.8	0	6	-7%
Fc1cc(F)cc(NC(=S)NN2CCOCC2)c1	2	-0.8	0	nt	3%
O=C(c1ccco1)N1CCN(C(=O)C2CC2)CC1	3	-0.5	-3	-27	-3%
COc1ccccc1NC(=O)Nc1nc(CC(=O)Nc2ccccc2F)cs1	nt	0.7	8	nt	nt
COc1ccc(C)cc1NCC(=O)Nc1ccc(C(C)(C)C)cc1	12	-1.2	43	-25	9%
CN(CC(=O)Nc1ccccc1C(F)(F)F)C(=O)C1CCN(S(=O)(=O)c2ccc3c(c2)OCCO3)CC1	nt	0.8	-9	nt	nt
Cc1ccc(NC(=O)CSCc2cc(=O)n3cc(C)sc3n2)cc1	nt	-0.3	-7	nt	nt
COc1ccc(CC(=O)NC(C)CCc2ccccc2)cc1 (configuration not stated)	-4	-2.0	1	nt	-1%
COc1ccc(Cl)cc1Nc1nc2ccc(C)cc2n2cnnc12	nt	-1.0	5	nt	nt
CCOC(=O)N1CCC(NS(=O)(=O)c2cc(C(=O)OC)n(C)c2)CC1	nt	-1.8	-5	nt	nt
COc1ccc(Cl)cc1C(=O)Nn1cnnc1	nt	-0.4	4	nt	nt
CC(Oc1ccccc1)C(=O)Nc1ccccc1F (configuration not stated)	-3	-1.0	-1	-16	5%
Nc1c(-c2ccc(Cl)cc2)cnc2c(-c3ccc(F)cc3)cnn12	nt	2.3	8	nt	nt
O=C(CN1CCN(Cc2ccccc2)CC1)N/N=C/c1ccco1	nt	5.5	-6	nt	-2%
Clc1ccc(-c2nnc(COc3ncnc4ccccc34)o2)cc1	1	-1.1	1	nt	1%
Cc1ccccc1OCC(=O)N(Cc1ccc(N(C)C)cc1)C1CCS(=O)(=O)C1 (configuration not stated)	5	-1.8	7	-25	0%
COC(=O)c1[nH]c2ccccc2c1NC(=O)CN1CCN(c2cccc(Cl)c2)CC1	6	-17	-2	-53	5%
O=C1c2ccccc2C(=O)N1CCCCSc1nnnn1-c1ccccc1	1	3.7	-12	-40	-11%
O=[N+]([O-])c1ccc(NCCc2ccccc2)c(Br)c1	nt	4.1	-4	nt	nt
CCCCC(CC)CNC(=O)C1C2C=CC(C2)C1C(=O)O (configuration not stated)	0	-0.3	-5	-44	-3%
O=C(c1ccc2c(c1)OCO2)N(c1ccc(F)cc1)C1C=CS(=O)(=O)C1 (configuration not stated)	-1	-0.6	0	6	-6%
COC(=O)c1cc(S(=O)(=O)N2c3ccccc3CC2C)cn1C (configuration not stated)	nt	6.4	0	nt	nt
C/C(N)=C(/C#N)C(=O)CSc1nnc(-c2ccc3c(c2)OCO3)o1	1	-1.3	-2	4	-4%
Cc1cnc(NC(=O)COc2ccc3c(c2)CCC3)s1	nt	-3.0	71	nt	nt
O=C(Cn1cnc2c(nnn2Cc2ccc(F)cc2)c1=O)NCc1ccc(F)cc1	-7	nt	-6	nt	-4%
CC(OC(=O)Cc1c[nH]c2ccccc12)C(=O)Nc1ccccc1[N+](=O)[O-] (configuration not stated)	nt	3.3	2	nt	nt
CCOc1ccccc1OCCC(=O)OCC(=O)Nc1c(C)nn(-c2ccccc2)c1C	nt	-4.9	-5	nt	nt
COc1cc(NC(=O)CSc2nnnn2Cc2ccccc2)cc(OC)c1	1	0.1	-11	nt	-12%
Cc1ccc(S(=O)(=O)N2CCOCC2)cc1NC(=O)COC(=O)CNC(=O)c1ccc(C(C)(C)C)cc1	8	nt	5	-33	8%
O=S1(=O)CC(NCc2ccccc2)C(Nc2ccc(Cl)cc2)C1 (configuration not stated)	15	0.6	-5	-33	13%
COc1ccc(NC(=O)c2cccs2)cn1	nt	-0.8	-11	nt	-7%
CN(CC(=O)Nc1ccc(Cl)c(C(F)(F)F)c1)C(=O)c1cc(=O)[nH]c2ccccc12	nt	3.2	9	nt	nt
CCOc1ccc(NC(=O)CCNS(=O)(=O)c2ccc3c(c2)c(=O)n(C)c(=O)n3C)cc1	-4	-1.9	-6	13	-5%

More results:
SMILES	Arbovirus inh	RecA intein inh	Mtb betalactam	YopH PTP inh	Mtb H37Rv	others
Cn1c(=O)c2c(ncn2CCN(CCO)Cc2ccccc2)n(C)c1=O	8	-0.5	7	-25	-4%
CC(=O)c1ccc(N2CCN(CC(O)COCc3ccco3)CC2)cc1 (configuration not stated)	1	-1.1	-1	nt	5%
O=C(NCCCN1CCCC1=O)c1cccc(NS(=O)(=O)c2ccc(Br)cc2)c1	nt	-0.7	-3	nt	nt
C#CCNC(=O)/C=C/c1ccc(OC)cc1	6	0.2	2	-28	-5%
CCN1C(=O)/C(=C2\SC(=S)N(CCCOC)C2=O)c2ccccc21	1	-4.7	7	-45	-1%
CCCCN1C2=C(C(=O)CC(C)(C)C2)C(c2ccccc2)C2=C1c1ccccc1C2=O (configuration not stated)	3	-0.2	-9	-11	1%
Cc1ccc(NC(=S)Nn2cnnc2)cc1	-2	-0.7	3	nt	-1%
NS(=O)(=O)c1ccc2c(c1)C1C=CCC1C(C1CC=CCC1)N2 (configuration not stated)	29	-3.5	9	-25	-2%
Cc1ccc(NCc2nnc(SCCN3CCCCC3)n2CC2CCCO2)c(C)c1 (configuration not stated)	-1	-0.6	-10	-9	-2%
COc1cc(C(=O)Nc2nc3ccccc3s2)ccc1OCc1c(C)noc1C	-5	nt	60	-39	23%

7 entries out of the list, ordered by number of heavy atoms, smallest number first.
SMILES	Arbovirus inh	RecA intein inh	Mtb betalactam	YopH PTP inh	Mtb H37Rv	others
Cc1ccc(NC(=S)Nn2cnnc2)cc1	-2	-0.7	3	nt	-1%
NS(=O)(=O)c1ccc2c(c1)C1C=CCC1C(C1CC=CCC1)N2 (configuration not stated)	29	-3.5	9	-25	-2%
CCN1C(=O)/C(=C2\SC(=S)N(CCCOC)C2=O)c2ccccc21	1	-4.7	7	-45	-1%
Cn1c(=O)c2c(ncn2CCN(CCO)Cc2ccccc2)n(C)c1=O	8	-0.5	7	-25	-4%
COc1cc(C(=O)Nc2nc3ccccc3s2)ccc1OCc1c(C)noc1C	-5	nt	60	-39	23%
Cc1ccc(NCc2nnc(SCCN3CCCCC3)n2CC2CCCO2)c(C)c1 (configuration not stated)	-1	-0.6	-10	-9	-2%
CCCCN1C2=C(C(=O)CC(C)(C)C2)C(c2ccccc2)C2=C1c1ccccc1C2=O (configuration not stated)	3	-0.2	-9	-11	1%

Next results:
SMILES	Arbovirus inh	RecA intein inh	Mtb betalactam	YopH PTP inh	Mtb H37Rv	others
O=C(CN(c1ccc(F)cc1)S(=O)(=O)c1ccccc1)NCc1ccco1	-3	2.8	-12	-26	-17%
Cc1ccc(CNC(=O)CCN2C(=O)[C@@H]3Cc4ccccc4CN3C2=O)cc1	nt	58*	-7	nt	nt
CC(NC(=O)c1ccc([N+](=O)[O-])cc1Cl)C1CC2CCC1C2 (configuration not stated)	nt	1.3	38	nt	nt
CC(=O)c1cc(CN2CCC(C(=O)Nc3cccc(-c4cscn4)c3)CC2)cs1	nt	-0.3	-14	nt	nt
CCOc1ccc(NC(=S)N(CCc2c(C)[nH]c3ccccc23)Cc2ccco2)cc1	-1	1.0	-3	-43	nt
COc1ccc(-c2nnc(-c3cc4c(ccc5ccccc54)oc3=O)o2)cc1	15	-11	7	-26	-4%
CCOc1ccc(C(C)NC(=O)c2cccnc2OCC)cc1OCC (configuration not stated)	-7	0.7	-4	nt	-12%
COc1ccc(CNC(=O)C(NC(C)=O)C(=O)Nc2ccc(C(C)C)cc2)cc1 (configuration not stated)	-14	0.2	5	nt	6%
Cc1ccc2nc(NC(=O)C3CCN(S(=O)(=O)c4cnc[nH]4)CC3)sc2c1	31*	-0.5	2	-18	-1%
CC(C)(C)CN1CCNC[C@H]1Cc1cccc2ccccc12	nt	5.4	-13	nt	nt
Cc1cccc(NC(=S)NCCc2ccccc2)c1C	nt	2.1	-7	nt	nt
O=C(NCCOc1ccc(F)cc1)C1CCC(=O)N(CCCN2CCOCC2)C1 (configuration not stated)	nt	0.5	-3	nt	nt
c1ccc2c(CSCCc3ccncc3)cccc2c1	5	11	48	-19	15%
OCCC1CN(Cc2nc(-c3ccccc3)cs2)CCN1Cc1ccc(F)cc1 (configuration not stated)	5	0.3	5	nt	15%
O=C(COC(=O)Cc1ccccc1)NC(=O)NC1CCCCC1	nt	0.0	2	nt	nt
O=C(COc1ccc(Cl)cc1)NCc1n[nH]c(=O)c2ccccc12	nt	-1.0	-4	nt	nt
CC1=Nn2c(nnc2C2CCCCC2)SC1	3	-5.2	7	-31	-6%
CCOc1cc(NC(=S)NCCCN2CCOCC2)c(OCC)cc1NC(=O)C1CC1	-3	1.5	-8	-12	-2%
O=C(NC(=S)Nc1ccccc1)c1cc([N+](=O)[O-])ccc1N1CCOCC1	2	3.9	4	nt	-6%
O=C(Nc1nnc(-c2ccccc2)s1)c1ccc(Cl)c(S(=O)(=O)N2CCOCC2)c1	6	-1.9	nt	-48	0%	Arbovirus inh repeat=16
CCOc1ccc(-n2c(SCC(N)=O)nc3c(c2=O)SCC3)cc1	6	0.0	-2	-2	6%	Arbovirus inh repeat=-1
O=C1CCC(=O)N1c1ccc(S(=O)(=O)Nc2ccc(Br)cc2)cc1	nt	-0.4	-1	nt	nt
O=c1c2ccccc2c(-c2ccccc2)nn1-c1ccccn1	18	3.3	20	nt	2%
CCCCS(=O)(=O)C(=C1Nc2ccccc2N1)S(=O)(=O)CCCC	0	-1.0	-3	-39	-2%
CN1CCN(c2nc(-c3cccnc3)nc3scc(-c4ccccc4)c23)CC1	-26	0.2	81	nt	0%
C=CCOc1cccc(C2C(C(=O)c3ccco3)=C(O)C(=O)N2Cc2cccnc2)c1 (configuration not stated)	nt	2.3	-5	nt	nt
CCN(CC)C(=O)CN1C(=O)C2(OCC(C)(c3ccccc3)CO2)c2ccccc21 (configuration not stated)	2	-1.7	4	-4	-1%
O=C(CCc1nnc2n(CCc3ccccc3)c(=O)c3ccccc3n12)NCCCN1CCCCC1	nt	-1.8	-4	nt	nt
O=C(COC(=O)C1(c2ccc(F)cc2)CCCC1)NCc1ccco1	3	6.2	-8	nt	4%
O=C(NCCOc1ccccc1)c1ccccc1Cl	nt	-3.1	-2	nt	nt
Cc1c(CN2CCc3c([nH]c4ccccc34)C2C2CCCCC2)cnn1C (configuration not stated)	1	-5.4	8	nt	10%
CCNC(=S)NC1CC2CCC(C1)N2Cc1ccccc1 (configuration not stated)	3	1.3	2	-42	0%
CC1CCCN(CCCNC(=O)C2CCCN(c3ncnc4c3nc3n4CCCCC3)C2)C1 (configuration not stated)	nt	-2.6	11	nt	nt
Cc1ccc(NC2CCCN(C(=O)c3cccnc3)C2)cc1C (configuration not stated)	nt	-2.4	-4	nt	nt
COc1cc(OC)nc(N/N=C(\c2ccccc2)c2ccncc2)n1	-15	1.0	-7	-21	-8%
COc1ccccc1NC(=O)CCC(=O)OCc1ccc(Cl)cc1	5	-0.2	-2	nt	-5%
